Screening data: PubChem, ICCB-Longwood Screening Facility, Harvard Medical School
Polio RdRp inh: inhibitors of poliovirus RNA polymerase binding and polymerization. % elongation, % (compound at 16.7 µg/mL). actives 0.66% (n = 150,000). poliovirus polymerase elongation, fluorescence polarization; hits give low values; in the data active = % elongation below about 90%; also: some results filed as inactive read as strong as hits
Target sequence (P03300 1749-2209 limits assumed): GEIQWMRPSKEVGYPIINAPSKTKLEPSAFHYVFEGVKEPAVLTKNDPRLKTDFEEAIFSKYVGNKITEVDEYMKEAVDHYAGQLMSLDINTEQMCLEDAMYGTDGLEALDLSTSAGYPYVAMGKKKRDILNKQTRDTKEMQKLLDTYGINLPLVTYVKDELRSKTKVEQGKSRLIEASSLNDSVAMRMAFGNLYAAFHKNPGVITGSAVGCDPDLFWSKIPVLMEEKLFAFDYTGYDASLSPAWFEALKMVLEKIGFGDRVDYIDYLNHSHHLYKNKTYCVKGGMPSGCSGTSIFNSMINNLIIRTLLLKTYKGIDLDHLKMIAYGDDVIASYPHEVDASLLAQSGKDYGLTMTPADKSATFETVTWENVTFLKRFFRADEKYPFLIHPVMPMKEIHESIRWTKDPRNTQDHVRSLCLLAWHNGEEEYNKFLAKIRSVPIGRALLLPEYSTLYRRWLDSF
Polio RdRp inh intensity: further read-out of Polio RdRp inh, marked with its call; % elongation; measured here: total intensity read-out; formula for this scale not given here;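 total fluorescence in place of polarization; lower means less elongation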
An asterisk follows results filed as active.

| compound | Polio RdRp inh | Polio RdRp inh intensity |
| --- | --- | --- |
| COc1ccc(OC)c(C2CC(=O)Oc3c2c(=O)n(C)c2ccccc32)c1 (stereo not given) | 101.0 | 102.0 |
| NC(=O)c1cc(S(=O)(=O)NCC2CCC(C(=O)Nc3ccc(Cl)cc3)CC2)cs1 (stereo not given) | 106.0 | 111.0 |
| CCCc1nc2sc3c(N4CCC(C)CC4)ncnc3c2c2c1CCCC2 | 109.0 | 111.0 |
| O=C(NCCc1ccccc1Cl)c1ccc2c(c1)nc1n2CCCCC1 | 107.0 | 115.0 |
| COc1ccc(S(=O)(=O)N2CCC(C(=O)Nc3ccccc3)CC2)cc1OC | 109.0 | 113.0 |
| CCOC(=O)c1cnc2c(Cl)c(Cl)ccc2c1Nc1ccc(N(C)C)cc1 | 104.0 | 105.0 |
| Cc1cc(C)cc(NC(=O)c2cccc(C(=O)Nc3cc(C)cc(C)c3)c2)c1 | 104.0 | 108.0 |
| CCOc1ccc(CNC(=O)c2ccc3c(c2)nc2n3CCCCC2)cc1 | 114.0 | 112.0 |
| Cc1ccc(Cl)cc1N1CCN(C(=O)Cn2nc(C)n3c(cc4sccc43)c2=O)CC1 | 105.0 | 106.0 |
| NS(=O)(=O)c1ccc(CCNc2nccn(-c3cccc(C(F)(F)F)c3)c2=O)cc1 | 102.0 | 108.0 |
| CCOC(=O)c1ccccc1NC(=O)Cn1c(=O)n(CCC(=O)NCc2ccccc2OC)c(=O)c2ccccc21 | 105.0 | 106.0 |
| CC(=O)NCCNC(=O)CCCc1nnc2n(C)c(=O)c3sccc3n12 | 101.0 | 102.0 |
| CCc1ccc(S(=O)(=O)Nc2ccc3c(c2)n(C)c(=O)c(=O)n3C)cc1 | 107.0 | 114.0 |
| Cc1ccc(C(=O)Nc2nc3ccc(S(=O)(=O)N4CCCC4)cc3s2)cc1 | 104.0 | 108.0 |
| O=c1oc2ccccc2c(N2CCN(c3ccc(F)cc3)CC2)c1CN1CCCC1 | 108.0 | 111.0 |
| CCOc1ccc(NC(=O)Cn2c(=O)oc3cc(S(=O)(=O)N4CCC(C)CC4)ccc32)cc1 | 99.0 | 98.0 |
| Cc1ccc2c(c1)N(C(=O)Nc1cccc3c1CCCC3)CCO2 | 106.0 | 111.0 |
| O=C(CN1C(=O)C2(SCC(=O)N2c2cccc(Cl)c2)c2ccccc21)NCCc1ccccc1 (stereo not given) | 103.0 | 96.0 |
| COc1ccc(Cl)cc1S(=O)(=O)N1CCN(C(=O)c2cc(-c3ccc(Br)cc3)n[nH]2)CC1 | 110.0 | 108.0 |
| COc1ccc(C)cc1NC(=O)c1cc2c(=O)n(Cc3cccnc3)ccc2nc1C | 106.0 | 108.0 |
| CCOc1ccc(-n2c(SCC(=O)N3CCC(C)CC3)nc3c([nH]c4ccccc43)c2=O)cc1 | 99.0 | 108.0 |
| COc1ccc(NC(=O)Cn2c(=O)n(CCC(C)C)c(=O)c3cccnc32)cc1Cl | 104.0 | 107.0 |
| O=C(CSc1nc2c([nH]c3ccccc32)c(=O)n1-c1ccc(F)cc1)Nc1ccc2c(c1)OCCO2 | 106.0 | 108.0 |
| Cc1ccc(-c2nnc(SCC(=O)NCc3ccccc3)o2)cc1 | 104.0 | 99.0 |
| COc1ccc2nc(NC(=O)c3nc(SC(C)C)ncc3Cl)sc2c1 | 108.0 | 95.0 |
| CCOc1ccccc1C(=O)N(Cc1ccco1)Cc1ccco1 | 112.0 | 111.0 |
| COc1cc(CNC(=O)c2ccc(NC(=O)N3CCCCc4ccccc43)cc2)cc(OC)c1OC | 114.0 | 112.0 |
| CCOc1cc(CNC(=O)NC2COc3ccc(OC)cc3C2)cc(OCC)c1OCC (stereo not given) | 105.0 | 112.0 |
| Fc1ccccc1-n1ncc2c1ncn1nc(Cc3ccccc3)nc21 | 119.0 | 117.0 |
| Cc1c(C(=O)Nc2ccc(C(C)C)cc2)sc2nc3n(c(=O)c12)CCC3 | 98.0 | 102.0 |
| COc1ccc(C2C(C(N)=O)=C(C)Nc3nc(SCc4ccccc4Cl)nn32)cc1OC (stereo not given) | 104.0 | 101.0 |
| COc1ccc2c(c1)c1c(c(=O)n(Cc3ccccc3)c(=O)n1CC(=O)Nc1ccccc1F)n2C | 106.0 | 99.0 |
| O=C(COc1ccc2ccccc2c1)NC1CC(=O)N(c2ccccc2)C1 (stereo not given) | 99.0 | 105.0 |
| NC(=O)C1CCN(C(=O)c2ccc(NC(=O)c3nsc4ccccc34)cc2)CC1 | 102.0 | 103.0 |
| CCOc1ccc(Cl)cc1C1CC(=O)Nc2cc(OC)c(OC)c(OC)c21 (stereo not given) | 105.0 | 107.0 |
| Cc1ccc(CNC(=O)CCCn2c(=O)c3ccccc3n(Cc3ccccc3Cl)c2=O)cc1 | 104.0 | 104.0 |
| COCCCNC(=O)c1ccc(Cn2c(SCc3ccc(F)cc3)nc3cccnc32)cc1 | 111.0 | 112.0 |
| Cc1ccc(N2CCN(S(=O)(=O)c3cccc4ccccc34)CC2)cc1Cl | 109.0 | 103.0 |
| CCN(C(=O)CCc1nc(-c2ccc(C)cc2)no1)c1cc(C)ccc1C | 101.0 | 100.0 |
| COc1ccc(S(=O)(=O)N(CC(=O)NCCSc2ccc(C)cc2)c2ccc(C)cc2)cc1 | 107.0 | 105.0 |
| COc1ccccc1NC(=O)CSc1nc(-c2ccc(C)cc2)nc2c1Cc1c(CO)cnc(C)c1O2 | 109.0 | 101.0 |
| COc1ccc(CC(=O)Nc2nc3c(s2)CCCC3)cc1 | 95.0 | 100.0 |
| Cc1ccc(C)c(Cn2c(=O)n(CCCCC(=O)NCc3ccc4c(c3)OCO4)c(=O)c3ccccc32)c1 | 106.0 | 108.0 |
| Cc1nnc(N2CCCC(C(=O)NCc3ccccc3F)C2)c2nn(-c3ccc(Cl)cc3)c(C)c12 (stereo not given) | 104.0 | 112.0 |
| O=C(c1ccc2c(c1)N(Cc1ccccc1F)C(=O)c1ccccc1S2=O)N1CCCCC1 (stereo not given) | 109.0 | 109.0 |
| O=C(Nc1ccc(F)c(Cl)c1)N1CCC(CN2CCc3ccccc3C2)CC1 | 108.0 | 103.0 |
| COCCCNC(=O)CCC(=O)N1Cc2cccc(OC)c2Oc2ncccc21 | 105.0 | 107.0 |
| Cc1ccc(-n2nc(C(=O)N3CCN(c4ccccc4)CC3)c(=O)n(C)c2=O)cc1 | 118.0 | 121.0 |
| CCC(C)NC(=O)c1cn(CC)c2ccc(S(=O)(=O)N3CCCCC3)cc2c1=O (stereo not given) | 105.0 | 107.0 |
| Cc1cccc(N2CCN(C3(c4ccccc4)C(=O)c4ccccc4C3=O)CC2C)c1 (stereo not given) | 102.0 | 100.0 |

One compound at a time, from the list above:
NC(=O)C1CCN(C(=O)c2ccc(NC(=O)c3nsc4ccccc34)cc2)CC1 is entered as Polio RdRp inh: 102.0; Polio RdRp inh intensity: 103.0
Cc1ccc(C)c(Cn2c(=O)n(CCCCC(=O)NCc3ccc4c(c3)OCO4)c(=O)c3ccccc32)c1 is entered as Polio RdRp inh: 106.0; Polio RdRp inh intensity: 108.0

Later entries:
| compound | Polio RdRp inh | Polio RdRp inh intensity |
| --- | --- | --- |
| CC(=O)c1ccc(NC(=O)Cn2cnc3nc4c(cc3c2=O)CC(C)CC4)cc1 (stereo not given) | 113.0 | 122.0 |
| Fc1ccc(CN2CCc3nc(Nc4ccccc4)ncc3C2)cc1F | 108.0 | 108.0 |
| CCCCn1c2ccc(F)cc2c2nnc(SCCN(CC)CC)nc21 | 102.0 | 100.0 |
| CCOC(=O)c1cnc2c(C)cc(C)cc2c1Nc1cccc(C(=O)O)c1 | 104.0 | 105.0 |
| CCCCOc1ccccc1C(=O)N(Cc1cccc(F)c1)C1CCS(=O)(=O)C1 (stereo not given) | 112.0 | 102.0 |
| O=C(Cc1csc2nc(-c3ccccc3)cn12)NCc1ccc(F)cc1 | 105.0 | 107.0 |
| COc1ccccc1-c1nc(SCC(=O)NCc2ccc(C)cc2)c2c(=O)n(C)c(=O)n(C)c2n1 | 110.0 | 105.0 |
| COc1cc(OC)c(NC(=O)CSc2nccn2C)cc1Cl | 107.0 | 104.0 |
| Cc1ccc(-n2nc3c(=O)n(C(C)C(=O)NCc4ccccc4C)nc(C)c3c2C)cc1 (stereo not given) | 109.0 | 100.0 |
| CCOc1ccc(NC(=O)CCn2nc(C)c(S(=O)(=O)N3CCCCC3)c2C)cc1 | 105.0 | 98.0 |
| CCOC(=O)c1ccc(-n2c(N)c(C(=O)OC)c3nc4ccccc4nc32)cc1 | 100.0 | 96.0 |
| CN(C)S(=O)(=O)c1ccc2c(c1)N(CC(=O)Nc1ccc(F)cc1)C(=O)CS2 | 112.0 | 114.0 |
| COc1ccc(CCNC(=O)CN(c2ccccc2)S(=O)(=O)N(C)C)cc1OC | 105.0 | 105.0 |
| Cc1ccc(C)c(NC(=O)c2ccc3nc(CCc4ccccc4)oc3c2)c1 | 104.0 | 103.0 |
| Cc1ccc(C)c(S(=O)(=O)n2nc(C)c(S(=O)(=O)N3CCCCCC3)c2C)c1 | 106.0 | 111.0 |
| COc1ccc(CNC(=O)C2CCCN(S(=O)(=O)c3cccc4nsnc34)C2)cc1 (stereo not given) | 112.0 | 116.0 |
| Cc1cccc(NC(=O)c2oc3ccc(S(=O)(=O)N(C)C4CCCCC4)cc3c2C)c1C | 116.0 | 109.0 |
| O=C(CN1C(=O)CSc2ccc(S(=O)(=O)N3CCCC3)cc21)NCc1ccc(F)cc1Cl | 108.0 | 105.0 |
| COC(=O)c1c(NC(=O)Cc2coc3cc(C)cc(C)c23)sc2c1CCC2 | 116.0 | 116.0 |
| COc1ccc(OC)c(NC(=O)CN2C(=O)CC(C)Sc3ccccc32)c1 (stereo not given) | 110.0 | 111.0 |
| COc1cccc2cc(-c3nc(Nc4cccc(C)c4C)sc3C)c(=O)oc12 | 110.0 | 112.0 |
| COc1ccc(-c2nnc3n2N(C(C)=O)C(c2ccc(Cl)c(Cl)c2)=C(C(C)=O)S3)cc1 | 103.0 | 107.0 |
| NS(=O)(=O)c1ccc(CCNc2nc3c(-c4cccc(F)c4)nnn3c3ccc(Cl)cc23)cc1 | 103.0 | 113.0 |
| O=C(NCCc1ccc(Cl)cc1)c1cccn1-c1nnc(N2CCCCC2)s1 | 106.0 | 112.0 |
| Cn1c(=O)n(C)c2cc(CNCc3ccc(C(=O)O)cc3)ccc21 | 101.0 | 107.0 |
| COc1ccc(-c2c(C)nn3c(C(F)(F)F)cc(-c4ccccc4)nc23)cc1OC | 104.0 | 107.0 |
| O=S(=O)(Nc1nc2n(n1)C(c1ccc(F)cc1)C=C(c1ccccc1)N2)c1ccc(Cl)cc1 (stereo not given) | 103.0 | 158.0 |
| Cc1cccc(C)c1Nc1c(-c2ccc(O)cc2)nc2sccn12 | 105.0 | 107.0 |
| Cn1c(=O)c2c(-c3ccccc3)n(CCCO)cc2n(C)c1=O | 104.0 | 94.0 |
| Cc1ccc(N(CC(=O)Nc2ccc(F)cc2F)S(=O)(=O)c2cccs2)cc1 | 106.0 | 105.0 |
| COC(=O)CC1Oc2ccccc2-n2cc(-c3ccc(F)cc3)nc21 (stereo not given) | 107.0 | 109.0 |
| O=C(NCCC1=CCCCC1)c1ccc2c(c1)N(Cc1ccc(Cl)cc1)C(=O)c1ccccc1S2=O (stereo not given) | 105.0 | 105.0 |
| CCOC(=O)c1cc(S(=O)(=O)N2CCN(c3ccccc3)CC2)[nH]n1 | 100.0 | 103.0 |
| CCOC(=O)c1c(N)n(-c2cc(C)cc(C)c2)c2nc3ccccc3nc12 | 107.0 | 109.0 |
| Cc1ccc(Cl)cc1N1CCN(C(=O)c2c(C)oc3ncnc(N4CCOCC4)c23)CC1 | 105.0 | 106.0 |
| CCOc1ccc2c(c1)c(=O)c(C(=O)c1ccccc1)cn2Cc1ccccc1 | 104.0 | 107.0 |
| Cc1ccc(NC(=O)c2sc3nc[nH]c(=O)c3c2C)cc1Cl | 106.0 | 103.0 |
| CCN(CC)CCNC(=O)c1ccc(Cn2c(=O)c3cccn3c3cccnc32)cc1 | 107.0 | 105.0 |
| CCOc1ccc(C(=O)Nc2ccc(-n3nncc3-c3ccccc3)cc2)cc1OCC | 108.0 | 106.0 |
| O=C(CCS(=O)(=O)c1cccc2nsnc12)Nc1ccc(F)cc1 | 101.0 | 105.0 |
| Cc1cccc(C2N=C(N)Nc3nc4ccccc4n32)c1 (stereo not given) | 95.0 | 94.0 |
| O=C(CSc1nc2ccsc2c(=O)n1Cc1ccccc1F)NCc1ccccc1 | 102.0 | 98.0 |
| Cc1cc(C)n(CC(=O)Nc2cc(F)ccc2F)c(=O)c1C#N | 106.0 | 109.0 |
| O=C(Cn1ccn(-c2ccc(F)cc2)c(=O)c1=O)NCCc1ccccc1 | 103.0 | 106.0 |
| CC1CCN(C(=O)c2c(NC(=O)c3ccccc3Cl)sc3c2CCC(C(C)(C)C)C3)CC1 (stereo not given) | 108.0 | 110.0 |
| Cn1c(=O)c(=O)n(C)c2cc(N3CCOCC3)c(NS(=O)(=O)c3ccc(Cl)cc3)cc21 | 105.0 | 101.0 |
| CC1CCCN(c2csc3ccc(F)cc3c2=O)C1 (stereo not given) | 101.0 | 107.0 |
| COc1ccccc1N1CCN(C(=O)c2cnc(N3CCCCC3)c3ccccc23)CC1 | 104.0 | 108.0 |
| Cc1ccc(CNC(=O)C(=O)NCC(c2cccnc2)N2CCN(c3ccccc3F)CC2)cc1 (stereo not given) | 112.0 | 110.0 |
| COC(=O)c1ccc2c(=O)n(CCCCCC(=O)N3CCN(c4cc(C)ccc4C)CC3)c(=O)[nH]c2c1 | 108.0 | 109.0 |

Other compounds:
| compound | Polio RdRp inh | Polio RdRp inh intensity |
| --- | --- | --- |
| COc1ccc(Cl)cc1N(C)C(=O)C(=O)Nc1ccc2nc3n(c(=O)c2c1)CCCCC3 | 106.0 | 110.0 |
| Cc1cccc(N2CCN(C(=O)C3CCCN(S(=O)(=O)c4cccc5nsnc45)C3)CC2)c1C (stereo not given) | 104.0 | 100.0 |
| COc1ccc(C(=O)Cn2c(=O)n3nc(CCn4nc(C)cc4C)nc3c3cc(OC)c(OC)cc32)cc1 | 112.0 | 102.0 |
| COC(=O)c1ccc(Cn2nc(-c3ccc(C)c(C)c3)ccc2=O)cc1 | 109.0 | 110.0 |

Not all compounds are listed. The share of hits here may be higher or lower than overall.
